FGF22 binding – shifts melting point of recombinant human FGF22; Q9HCT0; recombinant FGF22 thermal shift, SYPRO orange fluorescence; percent of sucrose octasulfate shift, DMSO zero; calls only at 9.99 µM; 1.5% of 340,000 active; AID 651658;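 active = melting point raised past a set limit in the mean and every replicate; inconclusive = no clear call; three in four hits are not shown here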
Target sequence (Q9HCT0 whole entry, looked up): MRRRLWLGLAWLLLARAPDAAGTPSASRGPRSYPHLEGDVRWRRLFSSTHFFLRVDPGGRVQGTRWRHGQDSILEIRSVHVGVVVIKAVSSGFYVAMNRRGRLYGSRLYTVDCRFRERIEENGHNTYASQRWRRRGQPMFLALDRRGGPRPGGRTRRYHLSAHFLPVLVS
AF4-AF9 inh – MLL-AF4/AF9 protein interaction inhibition. AlphaScreen, biotin-AF4 peptide binding to FLAG-AF9. inhibition, % at 10 µM. 0.47% of 350,000 active;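 active = every replicate reaching a set inhibition limit, whatever the replicate mean, cut at about 25% in these data; inconclusive = mean inhibition reaches that limit but some replicates miss it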;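 also: 0% = plate neutral control median and 100% = total signal loss; the record names both 10 and 1 µM as test concentration; the first replicate is given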
Target sequence (P42568 whole entry, looked up): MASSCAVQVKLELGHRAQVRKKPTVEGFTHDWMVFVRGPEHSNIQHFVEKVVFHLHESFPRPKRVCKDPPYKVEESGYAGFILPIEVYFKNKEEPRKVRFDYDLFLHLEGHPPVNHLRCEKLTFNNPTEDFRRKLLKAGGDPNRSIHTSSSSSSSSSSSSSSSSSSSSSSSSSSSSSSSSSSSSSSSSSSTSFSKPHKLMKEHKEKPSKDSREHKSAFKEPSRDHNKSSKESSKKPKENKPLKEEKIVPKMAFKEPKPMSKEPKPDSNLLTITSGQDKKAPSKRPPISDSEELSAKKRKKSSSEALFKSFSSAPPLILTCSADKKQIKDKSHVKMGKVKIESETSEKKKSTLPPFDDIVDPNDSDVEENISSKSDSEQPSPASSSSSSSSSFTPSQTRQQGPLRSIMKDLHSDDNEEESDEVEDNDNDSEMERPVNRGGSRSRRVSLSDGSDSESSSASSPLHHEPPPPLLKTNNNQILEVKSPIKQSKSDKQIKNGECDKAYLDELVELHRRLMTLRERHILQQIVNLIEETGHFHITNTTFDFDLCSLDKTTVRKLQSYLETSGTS
An asterisk follows results filed as active; i = inactive; ? = inconclusive.

entry	FGF22 binding	AF4-AF9 inh	Structure
1	i	0.3	O=C(Nc1ccccc1F)N[C@@H]1CC[C@@H](CCNC(=O)C2CCCC2)O[C@H]1CO
2	i	0.8	C[C@@H]1CN([C@@H](C)CO)C(=O)c2cc(C#Cc3ccccc3F)cnc2O[C@H]1CN(C)S(=O)(=O)c1ccccc1
3	i	11	CCCCc1c(-c2ccccc2OC)ncn1Cc1ccc(F)c(F)c1
4	i	1.4	CCNC(=O)C[C@@H]1CC[C@H]2[C@H](COc3ccc(NC(=O)Nc4ccc(C)cc4)cc3C(=O)N2C)O1
5	i	-4.3	C[C@@H]1CN([C@H](C)CO)C(=O)c2cc(-c3ccc(F)cc3)cnc2O[C@@H]1CN(C)C(=O)Cc1ccccn1
6	i	2.4	C[C@@H]1CN([C@H](C)CO)C(=O)Cc2cc(NC(=O)NC3CCCCC3)ccc2O[C@@H]1CN(C)S(=O)(=O)c1cccs1
7	i	0.9	CO[C@H]1CN(C)C(=O)c2cc(NS(=O)(=O)c3ccc(C)cc3)ccc2OC[C@H](C)N(C)C[C@H]1C
8	i	2.4	CO[C@@H]1CC[C@H]2CCOc3ccc(C#N)cc3C(=O)N(C)C[C@@H](OC)[C@@H](C)C(=O)N(C)C[C@@H]1O2
9	i	-9.4	N#C[C@H]1[C@@H](c2ccccc2C2=CCCCC2)[C@@H](CO)N1C(=O)c1ccccn1
10	i	-13	C[C@@H]1CN([C@@H](C)CO)C(=O)c2cc(NC(=O)Cc3ccccc3)ccc2O[C@@H](C)CCCCO[C@H]1CN(C)C(=O)Nc1ccccc1
11	i	?	CCCN1C[C@@H](C)[C@H](OC)CN(C)C(=O)c2ccc(NC(=O)c3cccc(F)c3)cc2OC[C@H]1C
12	i	7.4	C[C@H](CO)N1C[C@H](C)[C@@H](CN(C)C(=O)C2CC2)OCc2ccccc2-c2c(n(C)c3ccccc23)C1=O
13	i	-1.1	O=C(NC1CCCC1)[C@@H]1[C@@H](CO)[C@@H]2Cn3c(ccc(C4=CCCC4)c3=O)[C@H]1N2CC1CC1
14	i	3.8	C[C@@H]1CCCCO[C@H](CN(C)C(=O)Nc2ccc3c(c2)OCO3)[C@H](C)CN([C@H](C)CO)C(=O)c2cc(NC(=O)Nc3ccc(F)cc3)ccc2O1
15	i	-2.3	CCN1[C@@H]2Cn3c(ccc(-c4cccc(F)c4)c3=O)[C@H]1[C@@H](C(=O)NCC1CC1)[C@@H]2CO
16	i	8.4	O=[N+]([O-])c1ccccc1/C=C/c1ccncc1
17	i	-0.5	CCCC#Cc1ccc([C@H]2[C@@H](C#N)N(C(=O)C3CCC3)[C@H]2CO)cc1
18	i	5.1	CO[C@@H]1CN(C)C(=O)c2ccc(NC(C)=O)cc2OC[C@H](C)N(Cc2cc(F)ccc2F)C[C@@H]1C
19	i	0.5	C[C@@H]1CN([C@@H](C)CO)C(=O)c2cc(NC(=O)CCC(F)(F)F)ccc2O[C@@H](C)CCCCO[C@@H]1CN(C)Cc1ccc2c(c1)OCO2
20	i	-1.8	O=C(N[C@H]1CC[C@H](CCNC(=O)C2CC2)O[C@H]1CO)c1ccncc1

Single records (already shown).
Entry for C[C@@H]1CN([C@H](C)CO)C(=O)c2cc(-c3ccc(F)cc3)cnc2O[C@@H]1CN(C)C(=O)Cc1ccccn1 → FGF22 binding: i; AF4-AF9 inh: -4.3
Entry for C[C@@H]1CCCCO[C@H](CN(C)C(=O)Nc2ccc3c(c2)OCO3)[C@H](C)CN([C@H](C)CO)C(=O)c2cc(NC(=O)Nc3ccc(F)cc3)ccc2O1 → FGF22 binding: i; AF4-AF9 inh: 3.8

New compounds follow
entry	FGF22 binding	AF4-AF9 inh	Structure
21	i	-5.0	COc1ccccc1S(=O)(=O)N[C@H]1C=C[C@H](CC(=O)N2CCOCC2)O[C@@H]1CO
22	i	-2.0	C[C@@H]1CN([C@@H](C)CO)C(=O)Cc2cc(NC(=O)CCC(F)(F)F)ccc2O[C@@H]1CN(C)Cc1ccncc1
23	i	1.3	COc1ccc2c3c(n(C)c2c1)[C@H](CO)N(CC1CCOCC1)CC31CN(C(=O)Nc2ccccc2)C1
24	i	-10	COc1ccc(NC(=O)Nc2ccc3c(c2)C(=O)N([C@H](C)CO)C[C@H](C)[C@H](CN(C)C(=O)Nc2ccccc2)OCCCC[C@@H](C)O3)cc1
25	i	-2.7	C[C@H]1CN([C@@H](C)CO)C(=O)c2ccccc2-c2ccccc2CO[C@H]1CN(C)Cc1ccccc1
26	i	-3.4	C[C@H](CO)N1C[C@H](C)[C@H](CN(C)C(=O)Nc2ccccc2)OCCCC[C@H](C)Oc2ccc(NS(=O)(=O)c3cn(C)cn3)cc2C1=O
27	i	-0.2	COCC(=O)Nc1ccc2c(c1)[C@@H]1C[C@H](CC(=O)N3CCc4ccccc4C3)O[C@@H](CO)[C@@H]1O2
28	i	-3.1	CCCNC(=O)C[C@H]1CC[C@H]2[C@@H](COC[C@@H](O)CN2C(=O)C2CCOCC2)O1
29	i	2.6	Cc1ccc(S(=O)(=O)Nc2ccc3c(c2)C(=O)N([C@@H](C)CO)C[C@H](C)[C@H](CN(C)C(=O)CCCN(C)C)OCCCC[C@H](C)O3)cc1
30	i	2.1	C[C@@H]1CN([C@@H](C)CO)C(=O)c2ccccc2-c2ccccc2CO[C@H]1CN(C)S(=O)(=O)c1cccs1
31	i	-2.9	C[C@H]1CCCCO[C@@H](CN(C)S(=O)(=O)c2cccs2)[C@@H](C)CN([C@@H](C)CO)C(=O)c2cc(NS(=O)(=O)c3ccc(F)cc3)ccc2O1
32	i	-2.3	C[C@@H]1CN([C@@H](C)CO)C(=O)c2cc(NC(=O)C3CCCCC3)ccc2O[C@H]1CN(C)Cc1ccncc1
33	i	-3.8	N#C[C@@H]1[C@H](c2ccc(C#Cc3cccc(F)c3)cc2)[C@@H](CO)N1C(=O)C1CC1
34	i	-2.1	C[C@@H]1CN([C@H](C)CO)C(=O)c2cc(N(C)C)ccc2O[C@H]1CN(C)C(=O)Nc1cccc2ccccc12
35	i	-3.9	C[C@@H]1CCCCO[C@@H](CN(C)C(=O)c2ccccc2)[C@H](C)CN([C@@H](C)CO)C(=O)c2cc(NC(=O)Nc3ccc(C(F)(F)F)cc3)ccc2O1
36	i	-3.2	N#C[C@H]1[C@H](c2ccc(C#Cc3ccc(F)cc3)cc2)[C@H](CO)N1C(=O)Cc1ccncc1
37	i	-2.2	CCCC(=O)Nc1ccc2c(c1)C(=O)N(C)C[C@H](OC)[C@@H](C)CN(Cc1nccs1)[C@@H](C)CO2
38	i	-5.0	CN(C)CC#Cc1ccc([C@@H]2[C@H]3CN(C(=O)c4ccc5c(c4)OCO5)CCCCN3[C@H]2CO)cc1
39	i	1.5	C[C@@H]1CN([C@@H](C)CO)C(=O)c2cccc(NC(=O)c3nc4ccccc4s3)c2O[C@H]1CN(C)Cc1ccc(C(=O)Nc2ccccc2N)cc1
40	i	5.4	O=C(NCC[C@@H]1CC[C@H](NC(=O)c2ccc3c(c2)OCO3)[C@H](CO)O1)Nc1cc(F)ccc1F

Looked up above.
AF4-AF9 inh, cpd 23 stands at 1.3
AF4-AF9 inh, cpd 32 stands at -2.3
AF4-AF9 inh, cpd 30 stands at 2.1
AF4-AF9 inh, cpd 27 stands at -0.2
AF4-AF9 inh, cpd 25 stands at -2.7
AF4-AF9 inh, cpd 40 stands at 5.4

Next part
entry	FGF22 binding	AF4-AF9 inh	Structure
41	i	-6.8	C[C@@H]1CN([C@@H](C)CO)S(=O)(=O)c2ccc(-c3ccc(C(=O)N(C)C)cc3)cc2O[C@H]1CN(C)C(=O)Cc1ccccn1
42	i	-0.7	CO[C@H]1CN(C)C(=O)c2ccc(NS(C)(=O)=O)cc2OC[C@H](C)N(C)C[C@H]1C
43	i	-1.9	COCC(=O)N1[C@H](C#N)[C@@H](c2ccccc2)[C@H]1CO
44	i	-0.5	COCC#Cc1cnc2c(c1)C(=O)N([C@H](C)CO)C[C@H](C)[C@@H](CN(C)C(=O)c1cnccn1)O2
45	i	-1.9	COc1ccccc1NC(=O)N[C@@H]1C=C[C@@H](CC(=O)N[C@H](C)c2ccccc2)O[C@H]1CO
46	i	-0.9	CN(C[C@@H]1[C@H](c2ccccc2)[C@H](CO)N1Cc1ccccn1)S(C)(=O)=O
47	i	-4.4	CN1c2ccc(-c3ccccc3F)cc2[C@@H]2[C@@H](CCN2S(=O)(=O)c2ccccc2)[C@H]1CO
48	i	-0.9	O=C(c1ccccn1)N1CC(=O)N2[C@@H](CO)[C@H](c3ccc(C#CC4CCCC4)cc3)[C@@H]2C1
49	i	-0.1	C[C@@H]1CN([C@@H](C)CO)C(=O)c2cc(NC(=O)c3ccncc3)ccc2O[C@@H]1CN(C)C
50	i	7.5	C[C@@H]1CN([C@H](C)CO)C(=O)c2cc(NS(=O)(=O)c3cccs3)ccc2O[C@@H](C)CCCCO[C@H]1CN(C)Cc1ccc(Cl)c(Cl)c1
51	i	1.0	CC(=O)NC[C@H]1[C@@H](c2ccc(-c3ccccc3)cc2)[C@H](CO)N1C(=O)C1CCC1
52	i	0.7	CO[C@H]1CC[C@@H]2CCOc3ccc(C#N)cc3C(=O)N(C)C[C@@H](OC)[C@@H](C)C(=O)N(C)C[C@H]1O2
53	i	0.7	COc1ccccc1-c1ccccc1[C@@H]1[C@@H](C#N)N(C(=O)C2CC2)[C@@H]1CO
54	i	3.6	CCCCOCCCNC(=O)C[C@H]1C[C@@]2(C(=O)OC)C(=C[C@H](C(C)(C)C)O[C@@H]2C)N(Cc2ccc3c(c2)OCO3)C1=O
55	i	5.2	O=C(C[C@H]1C=C[C@@H](NC(=O)CCN2CCCCC2)[C@@H](CO)O1)Nc1ccc(-c2ccccc2)cc1
56	i	-17	COc1cccc(C(=O)Nc2ccc3c(c2)C(=O)N(C)[C@@H]2CC[C@H](CC(=O)NCCCN4CCOCC4)O[C@@H]2CO3)c1
57	i	1.6	COC(=O)[C@]12C[C@H](CC(=O)N3CCCC3)C(=O)N(Cc3ccccc3)C1=C[C@H](C(C)(C)C)O[C@@H]2C
58	i	-1.5	O=S(=O)(N[C@H]1CC[C@H](CCn2cc(-c3cccc(F)c3)nn2)O[C@H]1CO)c1ccc(F)cc1
59	i	-2.5	C[C@@H]1CN([C@@H](C)CO)C(=O)Cc2cc(NS(=O)(=O)c3ccccc3)ccc2O[C@H]1CN(C)Cc1ccc(C(=O)Nc2ccccc2N)cc1
60	i	1.3	COc1ccc(-c2ccc3c(c2)O[C@@H](CN(C)Cc2ccccc2C(=O)O)[C@@H](C)CN([C@@H](C)CO)S3(=O)=O)cc1

Down the list, quoted from above:
Entries 25–28 in FGF22 binding, in turn: i, i, i, i
Entries 25–28 in AF4-AF9 inh, in turn: -2.7, -3.4, -0.2, -3.1

Returning to the listing, starting two compounds before the break.
entry	FGF22 binding	AF4-AF9 inh	Structure
59	i	-2.5	C[C@@H]1CN([C@@H](C)CO)C(=O)Cc2cc(NS(=O)(=O)c3ccccc3)ccc2O[C@H]1CN(C)Cc1ccc(C(=O)Nc2ccccc2N)cc1
60	i	1.3	COc1ccc(-c2ccc3c(c2)O[C@@H](CN(C)Cc2ccccc2C(=O)O)[C@@H](C)CN([C@@H](C)CO)S3(=O)=O)cc1
61	i	0.7	C[C@@H]1CN([C@H](C)CO)C(=O)c2cc(N(C)C)ccc2O[C@@H]1CN(C)C(=O)Nc1ccc2c(c1)OCO2
62	i	-0.2	O=C(C[C@H]1C[C@H]2c3cc(NS(=O)(=O)c4ccc(F)cc4)ccc3O[C@H]2[C@H](CO)O1)N1CCCCC1
63	i	11	C[C@@H]1CCCCO[C@@H](CN(C)C(=O)Nc2ccc(C(F)(F)F)cc2)[C@H](C)CN([C@H](C)CO)C(=O)c2cc(N(C)C)ccc2O1
64	i	-3.3	COCC#Cc1ccc2c(c1)O[C@H](CN(C)C(=O)C1CC1)[C@H](C)CN([C@H](C)CO)S2(=O)=O
65	i	-1.0	N#C[C@H]1[C@@H](c2ccccc2)[C@H](CO)N1C(=O)CCN1CCCCC1
66	i	0.1	C[C@H](NC(=O)C[C@@H]1C=C[C@H](NC(=O)C2CCC2)[C@H](CO)O1)c1ccccc1
67	i	2.4	O=C(c1ccccc1)N1[C@@H](CO)[C@@H](c2ccccc2)C12CN(Cc1nccs1)C2
68	i	-0.8	C[C@H](CO)N1C[C@H](C)[C@@H](CN(C)C(=O)c2ccccn2)Oc2ncc(-c3ccc(F)cc3)cc2C1=O
69	i	-13	C[C@@H]1CCCCO[C@@H](CN(C)C(=O)Nc2ccc(F)cc2)[C@@H](C)CN([C@H](C)CO)C(=O)c2cc(NC(=O)Nc3ccc(C(F)(F)F)cc3)ccc2O1
70	i	-3.1	COCC#Cc1cnc2c(c1)C(=O)N([C@H](C)CO)C[C@@H](C)[C@@H](CN(C)C(=O)c1cnccn1)O2
71	i	0.4	CCN1[C@@H]2Cn3c(ccc(C4=CCCC4)c3=O)[C@H]1[C@@H](C(=O)NCc1ccccn1)[C@@H]2CO
72	i	-1.6	COc1ccccc1CNC(=O)C[C@H]1C=C[C@@H](NC(=O)CC2CC2)[C@H](CO)O1
73	i	-1.1	CC(C)CC#Cc1cnc2c(c1)C(=O)N([C@H](C)CO)C[C@@H](C)[C@H](CN(C)C(=O)c1ccccc1F)O2
74	i	-0.6	O=C(O)C[C@H]1C[C@H]2c3cc(NC(=O)NC4CCCC4)ccc3O[C@H]2[C@@H](CO)O1
75	i	3.0	C[C@H](O)C#Cc1ccc([C@@H]2[C@H](CO)N3CCCCN(C(=O)c4ccncc4)C[C@@H]23)cc1
76	i	2.4	C[C@@H]1CCCCO[C@H](CN(C)C(=O)NC2CCCCC2)[C@@H](C)CN([C@@H](C)CO)C(=O)c2cc(NS(=O)(=O)c3cccs3)ccc2O1
77	i	1.4	CN(C)CCCNC(=O)C[C@@H]1CC[C@H]2[C@@H](COc3ccc(NC(=O)C4CCC4)cc3C(=O)N2C)O1
78	i	5.8	C[C@H]1CN([C@@H](C)CO)C(=O)c2cccc(NC(=O)Nc3ccc4c(c3)OCO4)c2O[C@@H]1CN(C)Cc1ccc(-c2ccccc2)cc1

A portion of the library; count on the stated rates, not on these rows.
